PrP 5UTR inh = inhibition of PrP 5' UTR reporter expression. cell-based PrP 5' UTR mRNA reporter, plate reader. inhibition, % (test concentration not listed). 0.35% of 340,000 active. AID 488862, 2010;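 active = every replicate at 50% or more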;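 also: 0 = median of the neutral control wells; tested in H4 reporter cells; numbers are from one replicate; inactives centre near -14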
Autofluor counter = compound fluorescence in toxin protease inhibitor counterscreen; 3.1% of 360,000 active; compound autofluorescence counterscreen, microsphere flow cytometry; hits give high values; fluorescence intensity (test concentration not listed); AID 624483;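 active = at least 3 SD above the mean of all compounds, about 16000 in these data; inconclusive = too few beads counted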;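 also: 100 nL of 1 mM stock went into each well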
RN4220 kill = growth inhibition of S. aureus RN4220, primary screen, OD600. 16 h. inhibition, % (concentration not given with the values). 0.33% of 330,000 active. AID 1259311, 2017;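 active = z-score of -3 or lower and OD600 up to 0.18 on both plates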;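 also: plate controls were untreated cells for no effect and reference antibiotic for full effect; stock transfer was 100 nL into about 80 µL; one replicate is shown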
ugtP null kill = growth inhibition of ugtP-null S. aureus, primary screen, RN4220 ugtP deletion, OD600; AID 1259309, 2017; 16 h; some inactives read as strong as hits; growth inhibition, % (no concentration beside the values); 0.54% of 330,000 active;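 active = z-score under -3 and OD600 up to 0.15 on both plates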;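 also: plate controls were untreated wells for no effect and antibiotic for full effect; wells of about 80 µL received 100 nL stock; the first replicate is given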
BJeLR viability = MLPCN primary cell-based screen for lethality selective to Ras in HRASV12 cells | BJeLR (HRASV12) viability, CellTiter-Glo ATP luminescence, 48 h; reference of the scale not given here | inhibition, % (concentration not given with the values) | 0.17% of 300,000 active;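 active = replicate mean above 50%; inconclusive = above 50% but judged a plate artefact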;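 also: 50 nL library stock added to about 25 µL; numbers are from one replicate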
Mtb hypoxia inh = PubChem AID 1159583. M. tuberculosis hypoxia-regulated fluorescent reporter, fluorescence. fluorescence inhibition, % (concentration not given with the values). 0.1% of 300,000 active;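 active = 35 to 45% if threefold the growth effect, above 45% if 1.5-fold the growth effect; inactive = the rest, general growth blockers included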;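 also: wells of about 50 µL received 100 nL stock; 0% = vehicle wells and 100% = reference inhibitor wells; whole bacteria with a GFP reporter of the hypoxia response; strong numbers were not always called active; many hits fall short of the cut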
Mtb hypoxia inh growth = second read-out of Mtb hypoxia inh, no call of its own (marks repeat the call); growth inhibition, %; measured here: M. tuberculosis growth (absorbance);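 0% = vehicle and 100% = reference antibiotic; read after six days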
Numbers without * were called inactive; ? = inconclusive; nt = not tested or not shown; & = joins results of further samples.

SMILES	PrP 5UTR inh	Autofluor counter	RN4220 kill	ugtP null kill	BJeLR viability	Mtb hypoxia inh	Mtb hypoxia inh growth
O=C(C1CCCN(Cc2ccccc2[N+](=O)[O-])C1)N1CCCC1 (centres undefined)	-6.3	3688	-0.9	18.2	-5.5	2.4	9.0
Cc1c(C(=O)N2CCCC2)c(S(=O)(=O)Nc2ccccc2Cl)c(C)n1C	-5.0	5443	4.2	5.4	5.8	17.1	2.0
CNC(=O)COc1ccc(C=O)cc1OC	-20.7	2077	6.1	11.0	7.7	3.2	2.4
CCOC(=O)/C(C#N)=C\C1=C(N2CCOCC2)CC(C)(C)OC1	-17.6	5180	-0.7	9.0	1.2	-1.0	6.9
COc1ccc(OCC(=O)C2CC2)c(C#N)c1	-11.5	4436	2.0	5.9	6.4	4.2	6.4
N/C(=N\OC(=O)Nc1ccccc1)c1ccno1	-27.2	nt	2.8	4.0	1.3	8.7	6.5
CC1(/[N+]([O-])=C/c2cccc(Cl)c2)CCCCC1=O (centres undefined)	-14.6	3876	2.3	3.4	-6.6	-5.6	0.2
OCCN1c2ccccc2CCc2ccccc21	nt	3819	3.1	5.8	-9.6	8.4	5.4
CCN1Cc2c(/C=C/c3ccccc3)nc3ccc(OC)cc3c2N(c2cccc(Cl)c2)C1	-25.7	4228	nt	nt	-6.9	nt	nt
CCC(=O)c1cc2c(C)cc(=O)oc2c(C)c1OC(C)=O	6.1	2432	5.9	1.7	-9.7	9.9	2.4
CN(C)CCCN(C(=O)c1ccco1)c1nc2ccc(F)cc2s1	-17.0	4304	0.8	-2.6	-5.4	15.3	4.0
Cc1cc(C)c(/C([O-])=C(/C(=S)Nc2ccc(SC(F)F)cc2)[n+]2ccccc2)cc1C	-13.1	4472	6.4	7.7	-8.6	4.8	14.7
O=C(COc1ccc2c(-c3ccccc3)cc(=O)oc2c1)NCc1cccs1	15.9	2173	-12.4	10.9	-8.7	11.0	6.5
CC(C)Cn1c(-c2ccc(Br)o2)n[nH]c1=S	-21.9	2435	-0.4	-5.7	-6.3	-0.8	0.1
COc1ccc(OC)c(C(c2nnnn2Cc2ccccc2)N2CCC(C(N)=O)CC2)c1 (centres undefined)	-17.3	2951	0.4	4.9	3.0	nt	nt
Cc1ccc(C(=O)NC2CC(C)(C)NC(C)(C)C2)cc1Cl	-9.5	3135	0.7	7.1	-5.9	6.8	0.5
CCS(=O)(=O)C1=NN2C(=N)/C(=C\c3ccc(OCCOc4cccc(OC)c4)c(OC)c3)C(=O)N=C2S1	-10.4	4019	10.0	-11.2	6.4	10.5	27.6
C[C@H](CO)N1C[C@H](C)[C@@H](CN(C)S(=O)(=O)c2cccs2)Oc2ccc(NC(=O)Nc3ccc(C(F)(F)F)cc3)cc2C1=O	-12.4	3663	4.4	-25.1	nt	-0.9	13.6
C/C(=N\NC(=O)c1cc2ccccc2cc1O)c1ccc2c(c1)OCO2	-18.8	3026	nt	nt	6.8	nt	nt
COc1cccc(-n2nnnc2SCC(=O)Nc2ccc3c(c2)OCCO3)c1	-20.9	3003	2.6	10.3	10.1	nt	nt
CN(C1=NC(=O)CS1)c1ccc(O)cc1	-15.2	4477	1.3	10.8	-7.9	-1.4	5.7
COCCNC(=O)c1ccc(CN2CCc3ccccc3C2)cc1	-17.7	2797	0.0	5.6	0.1	-2.1	2.8
CCCCCCCc1nc2c(=O)n(C)c3ccccc3c2o1	-28.7	5773	3.1	9.2	3.8	19.1	7.9
CCCCC(=O)Nc1ccc(Br)cc1C(=O)O	-21.7	3927	9.5	-7.4	-14.9	-1.4	1.3
O=C(/C=C/c1ccc(F)cc1)NC(=S)N1C[C@H]2C[C@H](C1)c1cccc(=O)n1C2	-21.4	4330	4.5	-5.2	-0.7	nt	nt
O=C(c1ccco1)N1CCN(c2ncnc3c(-c4ccc(Cl)cc4)nsc23)CC1	-2.7	3736	2.0	1.7	-10.2	0.8	-0.8
CN(CC(=O)Nc1ccc(Cl)c(C(F)(F)F)c1)C(=O)C1CC(=O)N(Cc2ccco2)C1 (centres undefined)	-32.8	nt	1.4	0.6	10.6	-1.3	-0.5
CC(C)(C)C1CCC(C(=O)Nc2nccs2)CC1 (centres undefined)	-36.9	3977	1.8	-7.0	-8.4	-8.7	4.0
Cc1ccc(NS(=O)(=O)c2cccc(C(=O)N(C)Cc3cccs3)c2)cc1	-26.9	5577	1.7	0.2	-5.6	1.6	-0.5
CCOc1cc(C=NNC(=O)CN2CCCCC2)ccc1OCc1ccc(Cl)cc1	nt	nt	2.7	-3.9	nt	-5.0	-3.1
CCOC(=O)N1CCN(c2c(N3CCc4ccccc43)c(=O)c2=O)CC1	-5.2	6473	0.2	10.9	-13.5	0.8	7.1
COc1ccc(CN2CC(C(=O)NCCc3ccccc3)CC2=O)cc1 (centres undefined)	-39.7	17837*	4.0	1.2	3.7	-2.8	5.9
Cc1c(NC(=O)c2cnc(Cl)c(Cl)c2)c(=O)n(-c2ccccc2)n1C	-14.7	3785	3.5	1.8	-0.6	-5.3	19.1
O=C(NNC(=S)NCc1ccccc1)c1ccc(Br)o1	3.9	4587	3.3	5.7	4.8	-0.2	11.2
O=C(CCC(=O)Nc1ccccc1)NCCO	-5.4	?	6.8	11.8	-4.1	-6.7	-15.2
CCOC(=O)c1ccccc1NC(=O)CN1CCC(n2nnc3cc(C(F)(F)F)ccc32)CC1	-2.8	5119	9.7	10.3	2.7	-5.0	-4.5
COC(CC=CC(O)COCc1ccccc1)OC (centres undefined)	nt	nt	5.9&6.7&6.0&4.1	-1.8&-0.3&2.6&-10.1	nt	15.5&15.1&21.6&8.9	6.8&10.0&16.5&0.0
Cc1cc(C)cc(N(CC(=O)N2CCN(Cc3ccccc3)CC2)S(=O)(=O)c2c(C)noc2C)c1	-6.8	5549	6.4	9.2	5.9	nt	nt
COc1cccc(N(C(=O)Cn2nnc(-c3ccc(Cl)cc3)n2)C(C(=O)NCC2CCCO2)c2ccc(C)cc2)c1 (centres undefined)	-16.5	4433	2.7	-1.5	2.0	7.8	-7.9
CCn1cc(C(=O)N2CCCC2)c(=O)c2cc(S(=O)(=O)N3CCOCC3)ccc21	-32.7	8567	2.4	1.7	nt	2.1	-5.0
COc1cc2c(=O)n(Cc3ccccc3)c(=O)n(CC(=O)NCc3ccco3)c2cc1OC	-1.5	4061	0.7	-1.1	-6.1	nt	nt
COc1ccc(S(=O)(=O)Nc2c(O)ccc3ccccc23)cc1OC	-14.4	4093	9.8	-6.0	0.5	5.8	-1.7
CC(Nc1ccccc1CO)C(=O)Nc1cccc(Cl)c1Cl (centres undefined)	-21.1	3269	0.9	3.8	7.5	7.1	15.9
CC1(C2CCCC2)NC(=O)NC1=O (centres undefined)	-10.7	2944	2.9	4.3	nt	2.9	4.3
CCCCCCCCS(=O)C1CS(=O)(=O)CC1O (centres undefined)	-11.5	4562	4.5	13.8	-6.6	8.9	3.5
OC(c1cccc(OCc2ccccc2)c1)c1nnc(-c2ccccc2)o1 (centres undefined)	-16.1	3585	4.9	-14.6	0.0	nt	nt
CC(=O)Nc1cccc(-c2nnc3n2CC(C)S3)c1 (centres undefined)	-12.4	9225	5.2	7.7	22.9	7.6	2.7
O=C(CC(c1ccccc1)c1ccccc1)Nc1ncn[nH]1	-0.1	2481	-17.2	12.8	-1.4	-0.1	3.8
Cc1sc2ncn(CC(=O)NCCCC(=O)N3CCN(c4ccccn4)CC3)c(=O)c2c1C	-5.2	4711	0.9	0.4	3.2	nt	nt
CCOC(=O)CC(=O)CSc1ncnc2c1oc1ccccc12	-17.1	2462	23.5	-1.6	-1.5	-1.2	2.4
CC(C)(C)OC(=O)N[C@@H](COCc1ccccc1)C(=O)N[C@@H](CO)[C@H](O)[C@@H]1C[C@@H]1C(=O)NC1CC1	-16.3	3058	nt	nt	-3.5	nt	nt
CCC(C)(C)NC(=O)C(c1ccc(OC)cc1)N(C(=O)CCC(=O)Nc1cc(C)on1)C1CC1 (centres undefined)	-9.0	4303	4.1	4.4	-5.4	21.6	6.6
CCOC(=O)c1nnsc1NC(C)=O	-13.2	3795	-1.0	-6.5	-2.5	15.1	8.7
COc1ccc(NC(=O)c2sc3nc(C)nc(N4CCOCC4)c3c2C)c(OC)c1	-7.0	4887	4.4	7.2	-0.6	-6.8	-3.5
Cc1onc(-c2c(F)cccc2Cl)c1C(=O)NCCCN1CCOCC1	-3.2	20261*	-2.2	-1.7	1.7	3.0	5.5
CN(C)CCNc1ncnc2c1sc1nc(N3CCCC3)c3c(c12)CC(C)(C)OC3	5.5	3934	2.4	13.4	7.7	19.2	7.0
O=C(COC(=O)CCc1ccccc1)Nc1ncc(Cl)cc1Cl	8.6	16931*	8.1	12.5	-4.1	9.9	6.4
CCOc1ccc(C(=O)Nc2cccc(-c3nc4ccccc4[nH]3)c2C)cc1[N+](=O)[O-]	-13.5	2087	nt	nt	-9.4	nt	nt
CCc1c(C)sc(NC(=O)Cc2ccccc2C)c1C(=O)N1CCOCC1	-2.8	?	1.0	-0.1	4.2	0.1	-7.0
COCCN(C(=O)COC(=O)c1ccc2c(c1)OCCO2)c1c(N)n(Cc2ccccc2)c(=O)[nH]c1=O	-16.8	6137	3.4	2.9	-4.3	5.6	-3.9
More compounds follow.
SMILES	PrP 5UTR inh	Autofluor counter	RN4220 kill	ugtP null kill	BJeLR viability	Mtb hypoxia inh	Mtb hypoxia inh growth
CCCCN(C)C(=O)C(Cc1ccccc1)NS(=O)(=O)c1ccc2c(c1)c(=O)n(C)c(=O)n2C (centres undefined)	-20.3	5167	3.4	3.1	6.5	-1.6	-5.9
Nc1c2c(nc3ccccc13)CCC2	-4.6	2782	3.8	-3.3	9.8	0.8	2.0
CCOc1ccc(C(=O)NCC(=O)OCCN2C(=O)c3ccccc3C2=O)cc1OCC	-6.1	5680	-1.1	-2.1	nt	4.0	0.7
Cc1cc(C(=O)N/N=C/c2c(CO)cnc(C)c2O)c2ccccc2n1	4.1	4999	nt	nt	-9.0	nt	nt
CC1CN(C(=O)c2ccc(NS(=O)(=O)c3ccc(F)c(F)c3)cc2)CC(C)O1 (centres undefined)	5.2	4479	2.4	4.8	0.1	0.1	-3.0
CC(C)c1cc(C(=O)Nc2sc3c(c2C#N)CCC3)no1	-48.7	9696	17.7	-16.4	-2.4	4.0	8.6
CCN(C(N)=S)c1ccccc1	-23.4	3528	-1.2	-1.1	-4.0	nt	nt
CN1CCN(c2nc(-c3ccccc3)c3cc(Cl)ccc3n2)CC1	-34.6	2866	-1.7	50.7	-19.2	nt	nt
O=C1CC(Nc2ccc(N3CCOCC3)cc2)C(=O)N1Cc1ccccc1 (centres undefined)	-62.0	22615*	-1.4	-1.4	-9.3	3.9	4.1
CCCSc1nnc(NC(=O)CSc2sc3c(O)cc(=O)[nH]c3c2C#N)s1	-25.8	5512	2.7	8.5	2.8	2.0	8.6
CCCN(CC(=O)Nc1ccccc1C)C(=O)/C=C/c1cccs1	-15.0	10924	6.1	14.5	0.2	-1.4	-1.7
Cn1c(CN2CCN(C(=O)c3ccco3)CC2)nc2cc([N+](=O)[O-])ccc21	-12.4	7158	1.5	5.2	-8.4	8.3	13.3
CC(CC(c1ccccc1)c1c(O)c2ccccc2oc1=O)=NNC(N)=S (centres undefined)	nt	nt	6.8	3.9	nt	-0.2	2.3
COc1cc(NC(=O)c2ccc(Cl)cc2)c(OC)cc1Cl	-11.8	10856	1.4	5.1	5.3	2.0	18.4

One compound at a time, as listed above. Values in the order: PrP 5UTR inh, Autofluor counter, RN4220 kill, ugtP null kill, BJeLR viability, Mtb hypoxia inh, Mtb hypoxia inh growth
`CC(C)c1cc(C(=O)Nc2sc3c(c2C#N)CCC3)no1` is entered as -48.7, 9696, 17.7, -16.4, -2.4, 4.0, 8.6
`Nc1c2c(nc3ccccc13)CCC2` is entered as -4.6, 2782, 3.8, -3.3, 9.8, 0.8, 2.0
`Cc1cc(C(=O)N/N=C/c2c(CO)cnc(C)c2O)c2ccccc2n1` is entered as 4.1, 4999, nt, nt, -9.0, nt, nt
`COc1cc(NC(=O)c2ccc(Cl)cc2)c(OC)cc1Cl` is entered as -11.8, 10856, 1.4, 5.1, 5.3, 2.0, 18.4
`CCCCN(C)C(=O)C(Cc1ccccc1)NS(=O)(=O)c1ccc2c(c1)c(=O)n(C)c(=O)n2C` (centres undefined) is entered as -20.3, 5167, 3.4, 3.1, 6.5, -1.6, -5.9

From PubChem
